HCMV UL50-53 inh = inhibitors of HCMV UL50-UL53 interaction, biochemical, HTRF | hit rate 0.15% among 190,000 | inhibition, % (concentration not given with the values) | normalized percent inhibition | HCMV UL50-UL53 nuclear egress complex (human cytomegalovirus);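 active means both replicates at 50% or more, plus weaker picks with an unusually low signal ratio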;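 further: stock transfer was 100 nL into about 20 µL; 0% = negative control wells and 100% = wells with untagged competitor protein; inactives centre near -12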
Sa growth 42C = S. aureus growth inhibition at 42 and 30 °C, primary screen, LtaS inhibitor project, RN4220, two temperatures; OD600, 20 h, 42 °C; hits give low values; relative growth, % (test concentration not listed); hit rate 0.53% among 170,000; AID 720641, 2013;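 active means growth at 42 °C up to 50% and 20 or more points under that at 30 °C, or under 10% at both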;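 further: 300 nL library stock went into each well; scaled to the means of positive and negative controls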
GIV-Gai inh = inhibitors of GIV peptide binding to Galpha-i3, primary screen, biochemical, fluorescence polarization, FITC-GIV GBA peptide, rat Galphai3; 90 min; hits give low values; scaled: aluminum fluoride 0%, vehicle 100%; percent of control (FP), % (no concentration beside the values); Guanine nucleotide-binding protein G(i) subunit alpha-3 (Rattus norvegicus), P08753; hit rate 0.42% among 210,000; AID 1224905, 2016;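 active means replicate mean at 85% of control or lower, very high polarization wells dropped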;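 further: wells of about 15 µL received 100 nL stock; the first replicate is given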
Target sequence (P08753 whole entry, looked up): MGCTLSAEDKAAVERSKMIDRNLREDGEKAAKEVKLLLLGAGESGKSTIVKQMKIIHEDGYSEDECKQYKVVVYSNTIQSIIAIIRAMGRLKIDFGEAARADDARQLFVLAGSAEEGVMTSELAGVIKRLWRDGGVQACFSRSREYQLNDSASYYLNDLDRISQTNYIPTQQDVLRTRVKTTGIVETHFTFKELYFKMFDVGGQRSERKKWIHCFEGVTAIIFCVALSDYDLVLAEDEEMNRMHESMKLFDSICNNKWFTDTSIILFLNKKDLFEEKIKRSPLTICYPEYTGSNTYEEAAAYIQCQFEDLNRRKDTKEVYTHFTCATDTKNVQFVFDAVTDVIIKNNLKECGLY
Sa growth 42C second temp = further read-out of Sa growth 42C, marked with its call; relative growth, %; measured here: growth at 30 °C;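 optical density after 20 h as mean of two plates; 100% = untreated growth and lower means inhibition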
* marks the source's active call; other numbers are inactive results; x = no result given; & = joins results of further samples.

No.	smiles	HCMV UL50-53 inh	Sa growth 42C
1	COc1cccc(CNC(=O)c2ccc(NC(=O)N3CC(C)Sc4ccccc43)cc2)c1 (stereo not given)	-17	106
2	COc1cc(OC)cc(C(=O)Nc2nc(CC(=O)Nc3ccc(OC)cc3OC)cs2)c1	-4	x
3	CC1=CC(C)(C)N(C(=O)CN2C(=O)c3ccccc3C2=O)c2ccc(C)cc21	-10	95
4	CC(=O)Oc1c2c(C)[nH]nc2nc2c1c(=O)n(C)c(=O)n2C	-18	81
5	CCC(=O)Nc1nc(-c2ccccc2)c(C)s1	15	105
6	CC1=C(c2ccc(C)cc2)S(=O)(=O)N(CC(=O)N2CCN(c3ccccc3)CC2)C1=O	-6&-25	91
7	Cc1ccc(NC(=O)c2ccccc2-c2cc(C)no2)cc1	-14	90
8	COc1cc2c(cc1OC)C1=C(C#N)CCC(=NC(=O)c3ccccc3F)N1CC2	-59	90
9	O=C(NCCCN1CCCC1)c1ccc(CS(=O)c2ccccc2)o1 (stereo not given)	x	107
10	Cc1nn(-c2ccccc2)c(C)c1CCc1nn2c(-c3ccccc3)nnc2s1	-11	x

No.	Sa growth 42C second temp	GIV-Gai inh
1	97	104
2	x	104
3	94	100
4	83	98
5	97	104
6	92	99&101
7	104	101
8	84	106
9	94	102
10	x	105

One compound at a time, from the list above.
`Cc1ccc(NC(=O)c2ccccc2-c2cc(C)no2)cc1` is listed with HCMV UL50-53 inh: -14; Sa growth 42C: 90; Sa growth 42C second temp: 104; GIV-Gai inh: 101
`O=C(NCCCN1CCCC1)c1ccc(CS(=O)c2ccccc2)o1` (stereo not given) is listed with HCMV UL50-53 inh: x; Sa growth 42C: 107; Sa growth 42C second temp: 94; GIV-Gai inh: 102
`COc1cccc(CNC(=O)c2ccc(NC(=O)N3CC(C)Sc4ccccc43)cc2)c1` (stereo not given) is listed with HCMV UL50-53 inh: -17; Sa growth 42C: 106; Sa growth 42C second temp: 97; GIV-Gai inh: 104

Continued.
No.	smiles	HCMV UL50-53 inh	Sa growth 42C
11	O=C(CSc1nnc(-c2ccncc2)n1-c1ccccc1)Nc1ccc(F)cc1	x	107
12	O=C(CSCc1nc2sc3c(c2c(=O)[nH]1)CCC3)Nc1ccc(-c2nnc3n2CCCCC3)cc1	-19	71
13	CC1(C)OC(=O)C(C23CC4CC(CC(C4)C2)C3)C(=O)O1	-7	97
14	Clc1ccccc1-c1nc(Nc2ccccc2)nc2ccc(Br)cc12	-38	87
15	CC(C)(C)C(=O)Nc1cccc(C(F)(F)F)c1C(=O)O	10	100
16	O=C(/C=C/c1ccc2c(c1)OCO2)Nc1ncc([N+](=O)[O-])s1	-9	x
17	CCn1c(=O)[nH]c(=O)c2cnc(-c3ccc(Cl)cc3)nc21	22	x
18	O=C(COc1ccccc1)Nc1ccc2nc(NS(=O)(=O)c3ccccc3)sc2c1	-26	x
19	CCCCCCn1c(SCC(=O)/C(C#N)=C(\C)N)nnc1-c1c[nH]c2ccccc12	13	88
20	COc1ccc(CN2C(=O)CC(c3ccc(OC)cc3)CC2=O)cc1	7	x

No.	Sa growth 42C second temp	GIV-Gai inh
11	91	103
12	64	x
13	98	x
14	61	103
15	108	97
16	x	105
17	x	99
18	x	102
19	48	x
20	x	101

(list continues)
No.	smiles	HCMV UL50-53 inh	Sa growth 42C
21	Nc1nc(NC(=S)NC2CCS(=O)(=O)C2)n[nH]1 (stereo not given)	-29	100
22	CCn1cnc(S(=O)(=O)N2CCCC(C(=O)Nc3nccs3)C2)c1 (stereo not given)	-13	x
23	O=S1(=O)C[C@H](N2CCc3ccccc3C2)[C@@H](S(=O)(=O)c2ccc(F)cc2)C1	5	x
24	O=C(Cn1c(=O)[nH]n(-c2ccccc2)c1=O)N1CCc2ccccc2C1	-29	72
25	O=C(Nc1ccc2nc(SCC(=O)N3CCCC3)sc2c1)c1cccc(Br)c1	-31	105
26	COc1cc(C2C(C(=O)OCc3ccccc3)=C(C)NC3=C2C(=O)CCC3)cc(Br)c1O (stereo not given)	-34	x
27	COc1cc2c(cc1OC)n(CC(=O)c1cccc(Cl)c1)c(=O)n1nc(CCn3nc(C)cc3C)nc21	x	95
28	CN(C)c1ccc(C(=O)NCCCN2CCCC2=O)cc1	1	90
29	COc1ccc(/C=C2/C(=O)C(C)(C(C)C)CCC2C)cc1 (stereo not given)	x	83
30	O=C1c2cccc3cccc(c23)C(=O)N1CCN1CCN(C(=O)C23CC4CC(CC(C4)C2)C3)CC1	-2	x

No.	Sa growth 42C second temp	GIV-Gai inh
21	86	x
22	x	104
23	x	105
24	94	x
25	86	107
26	x	103
27	87	102
28	93	x
29	96	98
30	x	106

Later entries:
No.	smiles	HCMV UL50-53 inh	Sa growth 42C
31	CN(C)S(=O)(=O)Nc1cccc(Br)c1	7	100
32	O=C(O)Cn1c2c(c3ccccc31)CCCC2	-34	109
33	O=C(O)c1ccc2c(c1)S(=O)(=O)c1ccccc1C2=O	x	96
34	CC1CCN(c2ccc(/C=c3\sc4nc5ccccc5n4c3=O)cc2[N+](=O)[O-])CC1	-23	x
35	CC1CCc2nn(CC(=O)Nc3ccccc3Cl)cc2C1 (stereo not given)	-9	107
36	Cc1ccc(-n2nc(N3CCN(C(=O)c4cc5ccccc5[nH]4)CC3)ccc2=O)cc1	-56	x
37	COc1ccc(N2C(=O)NC(=O)/C(=C/c3ccc(OC)c(OC)c3OC)C2=O)cc1	13	x
38	O=C(C1=C2c3[nH]c4ccccc4c3CCN2C(=O)CC1)c1ccccc1	-17	x
39	O=C1C2=C(Nc3ccccc3SC2c2cccnc2)c2ccccc21 (stereo not given)	-50	110
40	COc1ccccc1C(=O)CS(=O)(=O)c1ccc(C)cc1	3	92

No.	Sa growth 42C second temp	GIV-Gai inh
31	100	109
32	79	x
33	87	97
34	x	102
35	94	97
36	x	101
37	x	110
38	x	106
39	88	105
40	95	103

Later entries.
No.	smiles	HCMV UL50-53 inh	Sa growth 42C
41	O=C(NC1CCCC1)C1CCCN(S(=O)(=O)N2CCCC2)C1 (stereo not given)	x	104
42	CC(NC(=O)c1ccccc1NC(=O)c1nsc2ccccc12)c1ccccc1 (stereo not given)	x	130
43	O/N=C/c1ccccc1Cl	-5	92
44	Cc1ccc(-c2nnc(Nc3cccc(Cl)c3)c3ccccc23)cc1S(=O)(=O)N1CCCCC1	-22	91
45	CC(C)c1nn2c(=O)cc(COC(=O)c3ccccc3NC(=O)c3cccc(Cl)c3)nc2s1	x	85
46	COc1ccccc1N=C1SC(C(=O)Nc2ccccc2OC)CC(=O)N1C (stereo not given)	-56	106
47	CC1CCC(=NNC(=S)NCC2CCCO2)CC1 (stereo not given)	-24	80
48	Cc1c(C(=O)NCc2ccco2)oc2ccc(S(=O)(=O)N3CCC4(CC3)OCCO4)cc12	-10	104
49	CCOC(=O)N1CCN(C(=O)Cc2cccc3ccccc23)CC1	-12	82
50	O=C(/C=C/c1ccc2c(c1)OCO2)Nc1ccc(Br)cc1	6	100

No.	Sa growth 42C second temp	GIV-Gai inh
41	87	101
42	77	110&99
43	87	x
44	88	105
45	90	101
46	93	108
47	86	x
48	90	99
49	79	102
50	93	113

(listing goes on)
No.	smiles	HCMV UL50-53 inh	Sa growth 42C
51	O=C(CSc1nc2c(n1-c1ccccc1)CCCC2)N1CCN(C(=O)c2cccs2)CC1	5	101
52	COc1cc(OC)c(C(=O)N2CCCCCCC2)cc1OC	-6	97
53	Cc1ccc(N2C(S)=C(C#N)C(=O)NC2c2cccs2)cc1 (stereo not given)	-28	81
54	O=S(=O)(c1cccc2nsnc12)N1CCN(c2ccccc2)CC1	-2	99
55	Cc1c(C(=O)O)oc2ccc3c(c12)C(=O)CC(C)(C)O3	x	91
56	CSc1nc(NC(C)(C)C)nc(OCCNS(=O)(=O)c2cc(C)ccc2C)n1	-13	x
57	O=C(CCCCl)Nc1ccccc1N1CCOCC1	-13	x
58	CC(C)OC(=O)C1=c2s/c(=C\c3cccnc3)c(=O)n2C(N)=C(C#N)C1c1cccnc1 (stereo not given)	x	94
59	Cc1csc2nc(COc3cccc(NC(=O)c4ccccc4F)c3)cc(=O)n12	12	102
60	CCOC(=O)c1[nH]c2c(c1C)/C(=N/O)CCC2	-4	119

No.	Sa growth 42C second temp	GIV-Gai inh
51	93	x
52	105	108
53	71	98
54	93	100
55	92	100
56	x	100
57	x	103
58	83	99
59	85	105
60	85	108

(continued)
No.	smiles	HCMV UL50-53 inh	Sa growth 42C
61	O=C(CNCc1ccco1)Nc1ncc(Cc2ccc(Cl)cc2)s1	-10	96
62	O=C1NC(Nc2nccs2)(C(F)(F)F)C(=O)N1CCc1ccccc1 (stereo not given)	-12	98
63	CCCn1nc(C(=O)NCC)c2ccccc2c1=O	-3	99
64	Cc1cc(C)cc(-n2ccn(CC(=O)Nc3ccccc3F)c(=O)c2=O)c1	-30	143
65	c1cncc(-c2nn3c(-c4cccnc4)nnc3s2)c1	-10	x
66	CCCn1c(NCc2ccc(OC)cc2)nc2ccccc21	x	111
67	O=C(COC(=O)c1ccc2c(c1)NC(=O)CS2)NCc1cccs1	-20	87
68	CCOC(=O)Nc1cc(C(F)(F)F)ccc1C(F)(F)F	-4	96
69	COc1ccccc1N1CCN(C(=O)C2C3C=CC(O3)C2C(=O)O)CC1 (stereo not given)	x	106
70	N=C1c2ccccc2CN1c1ccc2c3c(cccc13)C(=O)N2	-99	97

No.	Sa growth 42C second temp	GIV-Gai inh
61	78	99
62	89	107
63	85	x
64	95	98
65	x	104
66	96	98
67	98	x
68	92	x
69	90	99
70	81	x

The listing continues:
No.	smiles	HCMV UL50-53 inh	Sa growth 42C
71	CC(=NCCc1c[nH]c2ccccc12)c1ccccc1O	33	105
72	CCCCOc1cccc(C2C3=C(CC(C)(C)CC3=O)Nc3ccccc3N2C(=O)CC)c1 (stereo not given)	7	x
73	C1CN(c2nc(N3CCOCC3)nc(N3CCOCC3)n2)CCO1	-5	x
74	CCOc1ccc(C2(C)N([O-])C(CC)=C(c3ccccc3)[N+]2=O)cc1 (stereo not given)	-16	94
75	O=C1NC2(CCN(C(=O)NCc3ccc(F)cc3)CC2)Oc2ccccc21	-12	107
76	CCCSc1oc(-c2cccs2)nc1S(=O)(=O)c1ccc(C)cc1	-7	91
77	COc1cc(Br)cc(C2C3=C(CCCC3=O)N(c3ccc(F)cc3)C3=C2C(=O)CCC3)c1O	-20	92
78	COc1cccc(C(=O)c2cn(CC(=O)NCCc3ccccc3)c3nc(C)ccc3c2=O)c1	x	77
79	COC(=O)c1ccccc1NC(=O)c1cc(OC)cc(OC)c1	x	105
80	O=C(NCCO)c1nnc(-c2ccccc2)o1	-10	106

No.	Sa growth 42C second temp	GIV-Gai inh
71	85	100
72	x	95
73	x	103
74	88	x
75	96	104
76	93	102
77	75	103
78	82	109
79	93	105
80	90	104

(next part)
No.	smiles	HCMV UL50-53 inh	Sa growth 42C
81	Cc1ccc(Cc2nc3ccccc3nc2SCC(=O)NCCc2ccccc2)cc1	x	94
82	COC(=O)/C=C1\SC(=Nc2ccc(C)c(C)c2)N(c2ccc(C)c(C)c2)C1=O	-15	91
83	CCOc1ccc(CCNC(=O)c2ccc3c(c2)N(Cc2ccccc2F)C(=O)c2ccccc2S3=O)cc1OCC (stereo not given)	-33	104
84	CCCn1c2ccccc2c2nnc(SC(CC)C(=O)Nc3nc(C)c(C(=O)OCC)s3)nc21 (stereo not given)	x	98
85	CC(C)NC(=O)CCCN1C(=O)CSc2ncccc21	x	101
86	COc1ccccc1CCNC(=O)c1ccc2c(c1)c(C)c(C)n2C	x	71
87	CCCOc1ccc(C2c3c(-c4ccccc4O)n[nH]c3C(=O)N2Cc2cccnc2)cc1 (stereo not given)	-5	23
88	CCN(C(=O)NCc1ccccc1)C1CCCCC1	8	101
89	COc1ccc(NC(=O)CSc2nc(-c3ccco3)nc3cc(=O)[nH]n23)cc1	x	93
90	CCN(CC)c1nc(N(CC)CC)[nH]c(=O)n1	-16	111

No.	Sa growth 42C second temp	GIV-Gai inh
81	92	101
82	92	101
83	101	104
84	77	99
85	88	104
86	77	106
87	22	109
88	102	110
89	83	102
90	87	99

Next part
No.	smiles	HCMV UL50-53 inh	Sa growth 42C
91	CC1CCCCC1n1c(-c2cccnc2)n[nH]c1=S (stereo not given)	-34	94
92	Cc1ccc(-n2ncc(C(=O)N3CCN(c4cccc(C)c4)C(C)C3)c2C2CCN(C(=O)OC(C)(C)C)CC2)cc1 (stereo not given)	x	119
93	Cc1nc2cc(NC(=O)c3ccc([N+](=O)[O-])cc3)ccc2s1	-29	x
94	O=C(O)c1coc2c1/C(=N/N1CCCCC1)CCC2	-45	83

No.	Sa growth 42C second temp	GIV-Gai inh
91	79	x
92	112	111
93	x	104
94	82	103

3 compounds out of the list above, arranged by the value under Sa growth 42C second temp, low to high.
No. | molecule | Sa growth 42C second temp
91 | CC1CCCCC1n1c(-c2cccnc2)n[nH]c1=S (stereo not given) | 79
94 | O=C(O)c1coc2c1/C(=N/N1CCCCC1)CCC2 | 82
92 | Cc1ccc(-n2ncc(C(=O)N3CCN(c4cccc(C)c4)C(C)C3)c2C2CCN(C(=O)OC(C)(C)C)CC2)cc1 (stereo not given) | 112
